Calb biofilm kill – clotrimazole potentiators killing C. albicans biofilm, primary screen, 4-compound mixtures. actives 0.02% (n = 120,000). C. albicans biofilm persisters + clotrimazole, fluorescence viability; primary screen in compound mixtures of four per well. inhibition, % at 7.6 µM;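 active = inhibition above 30.3% in the primary screen of four-compound pools, then above 30% when the compound was retested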;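 also: compounds exposed to preformed 24 h biofilms for 48 h; the number belongs to the whole pool; some results filed as inactive read as strong as hits; inactives centre near 12; 0% = biofilm with clotrimazole alone and 100% = kill control; retested singly at about 60 µM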
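Test system: C. albicans biofilms. Buffer or medium: RPMI/MOPS medium, pH 7.0. Timing: 48 h compound exposure at 37 °C. Technique: Alamar Blue fluorescence. Evaluation: percent inhibition of biofilm viability.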
The depositor's hits bear a star. A portion of the library; count on the stated rates, not on these rows.

Structure | Calb biofilm kill
Cc1cc2nc(/C=C/c3nc4cc(C)c(C)cc4[nH]3)[nH]c2cc1C | 14
COC(=O)CNC(c1ccccc1)c1cc(Br)ccc1NS(=O)(=O)c1ccccc1 (configuration not stated) | 13
CCOC(=O)c1c(NC(=O)CS(=O)(=O)c2cn(CC)c3ccccc23)sc2c1CCCCC2 | 14
CCOC(=O)C1CCN(C(=O)CCS(=O)(=O)c2ccc3c(c2)CC(C)N3C(=O)CC)CC1 (configuration not stated) | 10
CCn1c(C(C)NC(=O)c2ccc(C)cc2)n[nH]c1=S (configuration not stated) | 10
COc1c(C)cc(C(=O)C2CCCN(C(=O)Cn3ccc(C)n3)C2)cc1C (configuration not stated) | 28
CC1(C)CC(=O)C=C(NCc2ccc(C(=O)O)cc2)C1 | 31
Cc1sc(NC(=O)c2cccnc2)nc1-c1ccccc1 | 6
COc1ccc(-c2csc3[nH]c(=S)n(-c4ccccc4)c(=O)c23)cc1OC | 14
CCOC(=O)CSc1nnc(CNC(=O)c2cccc(C)c2)n1C | -11
N#C/C(=C\c1ccccc1)C(=O)NCCN1CCOCC1 | 4
Cc1cc(-c2nnnn2-c2ccc(C(F)(F)F)cc2)no1 | 10
CSc1ncc(CO)n1Cc1ccccc1 | 14
CN(C(=O)C1CCCN(S(=O)(=O)c2cccc([N+](=O)[O-])c2)C1)C1CCS(=O)(=O)C1 (configuration not stated) | 8
COc1cc(NC(=O)Cn2ccsc2=N)c(C)cc1[N+](=O)[O-] | 3
O=C(O)c1ccccc1C(=O)Nc1ccc(S(=O)(=O)NC2CCCCC2)cc1 | 10
COc1ccc(C(=O)NCCc2cc3ccc(C)c(C)c3[nH]c2=O)cc1OC | -8
COCC(=O)n1nc(-c2ccccc2)nc1NCc1ccc(N(C)C)cc1 | 12
Cc1ccc(NC(=O)Cn2c(=O)cnc3ccccc32)cc1S(=O)(=O)N(C)C | 13
C=C(C)CNC(=S)N/N=C/c1c(F)cccc1F | 16
Cc1ccc(S(=O)(=O)N(C)C)cc1NC(=O)C1CCCC1 | 11
CCONc1ncnc2nonc12 | 9
NC(=O)CC1C(=O)N(c2ccc(F)cc2)C(=O)N1NC(=O)CCc1ccccc1 (configuration not stated) | 2
CCOC(=O)c1[nH]ncc1CN1CCN(Cc2ccc(C)cc2)C(CCO)C1 (configuration not stated) | 8
O=C(/C=C/c1ccccc1)N1CCN(C(=O)c2ccco2)CC1 | 5

Another view of some results above.
canonical_smiles: COc1ccc(-c2csc3[nH]c(=S)n(-c4ccccc4)c(=O)c23)cc1OC
  Calb biofilm kill: 14

canonical_smiles: CCOC(=O)CSc1nnc(CNC(=O)c2cccc(C)c2)n1C
  Calb biofilm kill: -11

(further entries)
Structure | Calb biofilm kill
O=C(NNC(=O)[C@@H]1CCCC[C@@H]1C(=O)O)c1cccs1 | 11
O=C(Nc1ccc2c(c1)OCCO2)c1cccs1 | 16
COC(=O)c1c(C)oc2ccc(N(C(=O)Oc3ccccc3)S(=O)(=O)c3ccc(Cl)c([N+](=O)[O-])c3)cc12 | 11
Cc1nn(C)c(C)c1CN(C)C(=O)c1nn2c(c1Br)NC(c1cccs1)CC2C(F)(F)F (configuration not stated) | 14
COc1ccccc1NC(=O)N1CCC(c2nc3cc(C)c(C)cc3[nH]2)CC1 | -8
CC(=O)Nc1ccc(-c2csc(NC(=O)C3CC(=O)N(c4ccc5c(c4)OCCO5)C3)n2)cc1 (configuration not stated) | 9
Cc1ccc(C(NC(=O)c2ccccc2)C(Cl)(Cl)Cl)cc1 (configuration not stated) | 15
CC1CC(=O)N(C)c2cc([N+](=O)[O-])ccc2N1 (configuration not stated) | 8
CC(=O)Nc1ccc(NC(=O)Cn2c(=O)n(-c3ccc(F)cc3)c(=O)c3oc4ccccc4c32)cc1 | 11
CN(C)S(=O)(=O)c1cccc(NC(=S)N/N=C/c2ccco2)c1 | 16
COc1ccc2cc3cc(C(=O)NCCN4CCc5ccccc5C4)sc3nc2c1 | 19
CCc1nnc(NC(=O)C2c3ccccc3Oc3ccccc32)s1 | -6
O=S(=O)(Nc1nc2ccccc2nc1N1CCc2ccccc2C1)c1ccc(Cl)cc1 | 10
COc1ccccc1Nc1nc(N)nc(CN2CCc3ccccc3C2)n1 | 5
O=C(N/N=C\c1ccc(O)c([N+](=O)[O-])c1)c1ccccc1-n1cccc1 | 0
Cc1cc(C)nc(N/N=C/c2cc3c(cc2[N+](=O)[O-])OCO3)n1 | 0
NCCNCCNCCN | 6
CCOC(=O)c1ccc(NC(=O)c2nc[nH]c2C(=O)N[C@@H](CC(C)C)C(=O)OCc2ccccc2)cc1 | 17
FC(F)Oc1ccc(NC(=S)NCc2ccco2)cc1Cl | 10
COc1ccc2cc3c(N)nn(C(=O)c4cccc([N+](=O)[O-])c4)c3nc2c1 | 19
Cc1cc(-c2nnc(CCC(=O)NC(c3ccccc3)c3ccccc3)o2)no1 | -3
O=C1C2C3C=CC(CC3)C2C(=O)N1/N=C/c1c(O)ccc2ccccc12 (configuration not stated) | 10
Cc1ccc(OCCn2c(=O)n(C)c3ccccc32)cc1 | -10
O=[N+]([O-])c1ccc(CSc2nnc(Cc3ccccc3)n2-c2ccc(F)cc2)cc1 | -2
Cc1csc2c(SCC(=O)NNS(=O)(=O)c3cccc(C(F)(F)F)c3)ncnc12 | 28
CCOC(=O)n1c(=O)n(Cc2cccc(F)c2)c2ccccc21 | 8
C/C(=N\OCC(=O)Nc1ccc2c(c1)OCCO2)c1ccc2c(c1)OCCO2 | 18
CCOC(=O)C1=C(C)NC(C)=C(C(=O)OCC)C1C(=O)OCC(=O)N(C)C1CCS(=O)(=O)C1 (configuration not stated) | 16
Cc1cc2c(c(=O)o1)C(c1cccs1)C(C#N)=C(N)O2 (configuration not stated) | 19
Cc1c(CCOC(=O)CC23CC4CC(CC(C4)C2)C3)sc[n+]1CC(=O)c1ccccc1 | 26
O=C(CCC(=O)c1ccccc1)NCCOc1ccccc1 | -6
O=C(CSc1cccs1)Nc1cccc2ccccc12 | 12
O=C(Nc1cc(Cl)ccc1Cl)c1ccc(-c2ccccc2)cc1 | -2
Cc1ccc2c(C)c(C(=O)Nc3nnc(C)s3)oc2c1 | -4
Cc1cc(NC(=O)CSc2nnc(-c3ccncc3)n2Cc2ccccc2)n(-c2ccccc2)n1 | 24
NNC(=O)c1nn(-c2ccc(Cl)cc2)cc1O | 30
COc1ccc(NC(=O)Cn2c(C(C)C)nc(C)cc2=O)cc1Cl | 5
CCc1ccc(OCC(=O)N(CC)CC)cc1 | 3
CC(=O)Oc1ccc2c(=O)c(Oc3ccccc3)c(C)oc2c1OC(C)=O | 13
O=C(C(=O)N1CCCc2ccccc21)N1CCCc2ccccc21 | 25
COc1ccccc1N(Cc1cc(=O)[nH]c2ccccc12)C(=O)c1cccc([N+](=O)[O-])c1 | 18
Cc1ncc(CO)c(/C=N/NC(=S)Nc2ccc(C(C)C)cc2)c1O | 8
O=C(N/C=C\n1cnc2cc(C(F)(F)F)ccc21)c1ccc([N+](=O)[O-])cc1 | -2
CNC(=S)NCCc1c[nH]c2ccc(OC)cc12 | 8
O=C(CN1CCN(Cc2ccc(Cl)cc2)CC1)N/N=C/c1ccccc1F | 40
Cc1nc(S/C(C(=O)O)=C2/C(=O)Nc3ccccc32)n[nH]1 | 11
COc1cc(C(=O)NCCC(=O)NCCc2ccc(Cl)cc2)cc(OC)c1OC | 8
NS(=O)(=O)c1cccc(NC(=O)COC(=O)/C(=C/c2cccs2)c2cccs2)c1 | 15
COc1ccc(/C=C2\SC(=S)N(CC(=O)NNC(=O)c3ccncc3)C2=O)cc1 | 16
Cc1ccnc(SCC(=O)N2CCc3ccccc3C2)n1 | -10

2 consecutive entries from above:
Structure | Calb biofilm kill
COc1ccc(NC(=O)Cn2c(C(C)C)nc(C)cc2=O)cc1Cl | 5
CCc1ccc(OCC(=O)N(CC)CC)cc1 | 3

Other entries follow:
Structure | Calb biofilm kill
COc1cc(CNc2ccc(NC(C)=O)cc2)ccc1OCc1ccccc1C | 11
COc1cccc(N(C(=O)C2COc3ccccc3O2)C(C(=O)NC2CCCCC2)c2ccc(O)cc2)c1 (configuration not stated) | 3
O=C(NC(=Nc1nc2ccccc2o1)NC(=O)c1ccccc1)c1ccccc1 | 8
CCc1ccc2nc(NC(=O)CSCc3c(C)noc3C)sc2c1 | 10
O=C(Nc1cccn(Cc2cccc(F)c2)c1=O)NC1CCCCC1 | 17
C/C(=N\Nc1ccc([N+](=O)[O-])cc1)c1ccco1 | 19
Nc1ccc(-c2nc3cc(N)ccc3s2)cc1 | 6
CC(=O)NNS(=O)(=O)c1ccc(-c2cc(C(F)(F)F)n(C)n2)s1 | 3
CCCn1nc(NC(=O)c2cccs2)c2cc3ccc(C)cc3nc21 | 23
O=C(c1ccc2c(c1)OCO2)N1CCC2(CC1)Oc1ccc(Cl)cc1C(=O)C21CC(c2cccnc2)=NO1 (configuration not stated) | 18
COC(=O)c1ccc(OC(=O)C23CCC(C)(C(=O)O2)C3(C)C)cc1 (configuration not stated) | 8
COc1ccc(-c2nn(-c3ccccc3)cc2/C=N/NC(=S)NC(C)C)cc1OC | 3
CCN(C(=O)COC(=O)c1cc(-c2cccs2)nc2ccccc12)C1CCS(=O)(=O)C1 (configuration not stated) | 1
Fc1ccc(N/N=C/c2cccnc2)c(F)c1 | 9
CN(c1ccccc1)S(=O)(=O)c1ccc(C(=O)Nc2nnc(C3CC3)o2)cc1 | 6
COc1ccccc1NC(=O)CSc1c2c(nc3ccccc13)CCC2 | 18
O=C(COC(=O)c1cc(S(=O)(=O)N2CCCC2)ccc1O)Nc1ccc(S(=O)(=O)N2CCOCC2)cc1 | 13
COc1ccccc1CNC(=O)CNC(=O)c1cn(-c2ccccc2OC)c(=O)c2ccccc12 | 25
O=C(CN1CCCc2ccccc21)NCc1ccccc1Cl | 4
CCCc1nc(SCC(=O)c2ccc(OC)cc2)c2ccccc2n1 | 10
CC(=O)Nc1ccc(S(=O)(=O)Nc2ccc(C)c([N+](=O)[O-])c2)cc1 | 2
Cc1cc2c(c(SCC(=O)NCc3ccccc3Cl)n1)C(=O)OC2 | 1
O=C(COC(=O)C12CC3CC(CC(C3)C1)C2)Nc1ccc([N+](=O)[O-])cc1Br | 11
COc1ccc(CCNCc2ccc(OCC(=O)N3CCCCC3)c(OC)c2)cc1OC | 7
Fc1cccc2ncnc(OCc3ccccc3)c12 | -1
O=C(COc1ccccc1)N1N=C(c2cccnc2)CC1(O)C(F)(F)F (configuration not stated) | 4
CNC(=S)NNC(=O)c1noc(C)c1C(=O)N1CCN(C(c2ccccc2)c2ccccc2)CC1 | 11
CCOc1ccc(C(=O)Nc2ccccc2C#N)cc1[N+](=O)[O-] | 1
COc1cc(/C=C/C(=O)OC(C)C(=O)Nc2c(C)n(C)n(-c3ccccc3)c2=O)ccc1OCC#N (configuration not stated) | 11
CN(C)S(=O)(=O)Oc1ccc(Cl)cc1C(=O)Nc1ccc(F)cc1F | 12
O=C(CNC(=O)c1ccc(Cl)cc1)Nc1ccc(S(=O)(=O)Nc2ncccn2)cc1 | 22
Cc1ccc(F)cc1NC(=O)N1CCCN(C(=O)OC(C)(C)C)CC1 | 17
COc1ccc(C2/C(=C(/O)c3ccc(OC(C)C)cc3)C(=O)C(=O)N2CCCN2CCOCC2)cc1 (configuration not stated) | 9
C[C@@H]1C=C(C(=O)NCc2nc3ccccc3[nH]2)O[C@H](OCc2ccc(CO)cc2)C1 | 14
O=C(Cc1ccc(Cl)cc1)Oc1cccc2cccnc12 | 11
Cc1ccc(O)c(CO)n1 | 13
O=C(CCCOc1ccc(Cl)cc1Cl)NCCCn1ccnc1 | -10
COC(=O)CCC(=O)OC1(C)C(=O)C=C2C=C(C3CC3)N(CCN3CCOCC3)C=C2C1=O (configuration not stated) | 15
COc1cc(C(=O)Nc2ccccc2N2CCOCC2)ccc1OCc1c(C)noc1C | 10
Cn1nc(C(C)(C)C)c(NC(=O)c2sccc2Cl)c1C(C)(C)C | 18
CC1CCC(NC(=O)CCNC(=O)c2ccccc2)CC1 (configuration not stated) | -6
Cc1ccc([N+](=O)[O-])cc1NC(=O)C(C)N1CCCCC1 (configuration not stated) | 12
COC(=O)c1cc2c(cc1[N+](=O)[O-])OCO2 | 12
Cc1sc2nc(CSc3ccccc3)nc(N3CCOCC3)c2c1C | 10
Cc1onc(C(=O)NC(C)c2ccccc2)c1[N+](=O)[O-] (configuration not stated) | 15
CC1(C)OC(c2ccccc2)=C/C(=C/C=N/NC(=O)c2ccncc2)O1 | 1
CCOc1ccc(Br)cc1CNCCN1CCOCC1 | 8
CCOc1ccc(CNCCNC(=O)c2nonc2N)cc1 | 12
CCCOc1ccc(-c2nc(-c3ccc([N+](=O)[O-])cc3)cs2)cc1 | 8

A second format for 4 compounds above.
SMILES: CNC(=S)NNC(=O)c1noc(C)c1C(=O)N1CCN(C(c2ccccc2)c2ccccc2)CC1
- Calb biofilm kill: 11

SMILES: Cn1nc(C(C)(C)C)c(NC(=O)c2sccc2Cl)c1C(C)(C)C
- Calb biofilm kill: 18

SMILES: C[C@@H]1C=C(C(=O)NCc2nc3ccccc3[nH]2)O[C@H](OCc2ccc(CO)cc2)C1
- Calb biofilm kill: 14

SMILES: O=C(COc1ccccc1)N1N=C(c2cccnc2)CC1(O)C(F)(F)F (configuration not stated)
- Calb biofilm kill: 4

Screens from PubChem BioAssay.
